Screens as filed in PubChem.
TRPML1 ag: human mucolipin-1 channel agonism; hit rate 0.12% among 410,000; activation, % (concentration not given with the values); AID 624414; Q9GZU1; TRPML1-expressing cells, Ca2+ dye fluorescence, FDSS; host cell line not named in the record; reference of the full effect not given here; in the data active = activation above about 50%; inconclusive = about 30% to 50%; inactive = below about 30%; note: 0% is about no effect; the text of the record puts the active cut at 80%
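In this qHTS format, compounds were pin-transferred onto Ca8-dye-loaded TRPML1-DL cells induced with Tet overnight, and intracellular Ca2+ fluorescence was recorded kinetically for 110 s after a 10 s baseline. A subsequent 4uM final 54-4 (EC80) addition followed by a second 110 s read served as the antagonist phase.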
Menin-MLL FL inh: displaces fluorescein MLL peptide from human menin | 290,000 tested, under 10 active | AID 1766 | FP activity change, % at 61.4 µM | Fluorescence polarization, fluorescein-MLL peptide displacement from menin; inconclusive = falling polarisation curve, or a change in total fluorescence; inactive = total fluorescence flat and polarisation flat or rising; no compound was filed as active; the % refers to the polarisation; negative = inhibition;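 note: % of control where 0% means no effect; inhibitors lower the polarisation; unlabelled MLL peptide was the positive control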
PINK1 modulator: modulators of PINK1 expression; PINK1 immunofluorescence, high-content cytometry, 24 h; hit rate 0.2% among 410,000; Potency, µM (highest dose often 76.6 µM), for inactives: top-dose activation (PINK1 increase), actives largely listed as activators; AID 624263; active = well fitted activation curve with a large enough effect; inconclusive = small, poorly fitted or top-dose-only effect; inactive = flat fitted curve, though single readings scatter; cell line not stated here;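 note: potency is the fitted concentration of half-maximal effect; % of control where 0% means no effect; nearly all actives have a fitted effect of over 65% in size; a mitochondrial uncoupler was the plate control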
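Stable cell line treated 24 h with compounds at 5 concentrations (CCCP controls), then fixed and immunostained for PINK1 plus nuclear and cell stains; PINK1 immunofluorescence quantified by laser-scanning microplate cytometry.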
Sfp inh: blocks B. subtilis Sfp PPTase activity | Biochemical Sfp PPTase activity, qHTS | Q9F4F7 | hit rate 3.5% among 310,000 | Potency, µM, for the others: max response, negative = inhibition, most hits filed as inhibitors; active = well fitted inhibition curve with a large enough effect; inconclusive = small, poorly fitted or top-dose-only effect, or another doubt; inactive = no such curve, though single readings can be large or run the other way;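 note: the enzyme is Sfp with the accession as filed and its product quenches rhodamine fluorescence; potency is the fitted concentration of half-maximal effect; 0% = enzyme reaction without inhibitor and -100% = no enzyme wells; top concentration of the series not given in the record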
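Sfp 15 nM + cpd, 15 min RT; start w/ rhodamine-CoA 5 uM, BHQ-2-YbbR 12.5 uM (final); 50 mM Hepes pH 7.6, 10 mM MgCl2, 0.01% NP-40, 0.01% BSA; read 525/598 nm at 0 and 30 min.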
TRPV1 PAM: human TRPV1 potentiation | Q8NER1 | TRPV1-expressing cells, Fluo-8 calcium influx, capsaicin EC20 potentiation; host cell line not named in the record; control for the full effect not named in the record | potentiation, % at 8.33 µM | hit rate 0.02% among 320,000 | AID 540277; active means potentiation above 80%; inconclusive means 30% to 80%; inactive means below 30%; note: 0% is about no effect
Target sequence (Q8NER1 whole entry, looked up): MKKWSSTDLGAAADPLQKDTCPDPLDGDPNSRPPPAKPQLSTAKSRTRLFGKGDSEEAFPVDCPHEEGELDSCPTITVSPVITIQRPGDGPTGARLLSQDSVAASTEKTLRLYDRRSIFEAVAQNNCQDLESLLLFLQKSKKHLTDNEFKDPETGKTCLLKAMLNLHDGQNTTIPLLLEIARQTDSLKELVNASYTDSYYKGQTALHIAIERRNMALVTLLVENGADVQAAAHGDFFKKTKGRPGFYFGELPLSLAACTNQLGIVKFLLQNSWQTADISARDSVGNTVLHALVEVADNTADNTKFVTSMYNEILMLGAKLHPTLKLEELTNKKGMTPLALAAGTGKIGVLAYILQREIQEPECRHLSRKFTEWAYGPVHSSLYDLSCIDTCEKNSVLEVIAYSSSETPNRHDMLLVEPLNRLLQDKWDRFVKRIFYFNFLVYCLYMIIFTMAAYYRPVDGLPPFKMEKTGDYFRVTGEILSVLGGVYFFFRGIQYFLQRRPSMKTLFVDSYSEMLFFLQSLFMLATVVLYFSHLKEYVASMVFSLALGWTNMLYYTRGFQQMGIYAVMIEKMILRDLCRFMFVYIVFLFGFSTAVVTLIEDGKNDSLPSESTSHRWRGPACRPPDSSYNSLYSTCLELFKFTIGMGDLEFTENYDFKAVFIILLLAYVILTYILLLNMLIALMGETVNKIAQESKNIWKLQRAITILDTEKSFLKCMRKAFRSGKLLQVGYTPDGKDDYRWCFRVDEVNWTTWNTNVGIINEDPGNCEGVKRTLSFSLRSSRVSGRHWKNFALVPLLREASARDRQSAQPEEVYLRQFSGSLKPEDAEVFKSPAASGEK
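Cells expressing TRPV1 were dye-loaded with Fluo-8 and read kinetically: 10 s baseline, 3 min after compound (agonist portion), then 2 min after EC20 capsaicin (allosteric enhancer portion). Calcium-bound dye fluorescence at 480/520 nm.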
ClpP mod: qHTS Assay for Activators of ClpP. ATP-dependent Clp protease proteolytic subunit (Bacillus subtilis (strain 168)), P80244. purified B. subtilis ClpP, FRET peptide cleavage, 20 min. Potency, µM (titrated, usually from 57.5 µM), for the others: at the highest dose activity change, negative = active. hit rate 1.9% among 340,000. AID 651965, 2013; active = well fitted falling curve with a large enough effect; inconclusive = small, poorly fitted or top-dose-only effect; inactive = no such curve, though single readings can be large or run the other way; note: potency is the fitted concentration of half-maximal effect; the source files actives as falling curves though it sought activators and does not explain the sign; nearly all actives have a fitted effect of over 65% in size; many hits overshoot -100%
Target sequence (P80244 whole entry, looked up): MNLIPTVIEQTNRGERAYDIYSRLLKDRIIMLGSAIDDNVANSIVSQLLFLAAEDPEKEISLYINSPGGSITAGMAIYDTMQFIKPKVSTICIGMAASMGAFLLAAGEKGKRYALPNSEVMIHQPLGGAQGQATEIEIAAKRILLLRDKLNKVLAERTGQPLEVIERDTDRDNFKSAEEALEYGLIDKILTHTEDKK
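Buffer: 100 mM Tris/HCl pH8, 100 mM KCl, 0.05% low protease BSA, 2.5% glycerol, 0.01% Tween-20. ClpP 10 microg/mL final; 20 min RT; delta FRET normalized to ADEP and DMSO controls.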
TRPML1 blocker: inhibitors of human TRPML1 channel | TRPML1-inducible cells, Ca2+ dye fluorescence, FDSS; active compounds read low; inhibition of EC80 agonist-evoked calcium signal | AID 624415 | hit rate 0.02% among 390,000 | Q9GZU1 | activity change, negative = inhibition, % (test concentration not listed); in the data active means activity change below about -50%; inconclusive means about -30% to -50%; inactive means above about -30%;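 note: stimulus is agonist 54-4 at its EC80 concentration; % is set by controls: 0 for no effect and ±100 for the full control effect; compound concentration not given in the record; the text of the record puts the active cut at -80%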
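Tet-induced TRPML1-DL cells loaded with Ca8 no-wash calcium dye were read kinetically on FDSS. Compound addition was followed by EC80 agonist 54-4 (4 uM final); inhibition was read over 110 s.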
* = called active by the depositor; ? = inconclusive; . = no result given; [ ] = remark or other dose.

SMILES	TRPML1 ag	Menin-MLL FL inh	PINK1 modulator	Sfp inh	TRPV1 PAM	ClpP mod	TRPML1 blocker
NC(=O)CSC1=Nc2ccccc2C2=NC(CC(=O)NCc3cccs3)C(=O)N12 (centres undefined)	1.1	-1.4	-3.3%	2%	-7	?	10
CCOC(=O)C1CCN(Cc2nc3ccc(Cl)cc3n2CCO)CC1	-1.0	1.5	-1.1%	?	5	0.1%	0
O=C(c1ccc(Cl)cc1)N1CCC(c2ccncc2)CC1	0.2	.	-0.8%	.	.	-1.7%	14
CC(=O)c1ccc(N(CC(=O)NC2CCS(=O)(=O)C2)S(=O)(=O)c2ccc(C)cc2)cc1 (centres undefined)	0.4	.	2.1%	.	.	1.7%	11
Cc1onc(-c2ccccc2Cl)c1C(=O)NC1CCS(=O)(=O)C1 (centres undefined)	0.1	0.0	0.3%	13%	-1	-1.1%	13
O=C(Nc1nc2c(F)cc(F)cc2s1)c1ccco1	-0.1	-0.3	0.0%	10%	-8	-13%	16
CN(C)C(=O)c1cn(N(C)c2ncc(C(F)(F)F)cc2Cl)c(=O)c2ccccc12	-0.7	-0.5	0.8%	19%	-5	0.6%	-7
Cc1ccc(-n2c(SCC(=O)Nc3cccc(S(=O)(=O)NC4=NCCCCC4)c3)nc3ccccc3c2=O)cc1	-0.1	3.1	0.5%	9%	6	-0.1%	-5
Cc1ccc(CN2CCNC(=O)C2CC(=O)N(C)C2CCCCC2)cc1 (centres undefined)	-0.3	.	0.3%	6%	-2	.	-14
CCn1ccnc1CN1CCN(CC(C)C)C(CCO)C1 (centres undefined)	-0.1	-0.2	1.4%	-21%	0	-0.1%	7
Cc1ccc(NC(=O)c2ncn(-c3ccccc3)n2)c(Cl)c1	0.4	.	0.4%	.	.	-9.4%	-1
N#CC1=C(N)SC(N)=C(C#N)C1C1CC=CCC1 (centres undefined)	0.7	6.6	-4.3%[38.3 µM]	20µM*	3	-0.3%	-8
O=C(CSc1ccc2nnc(-c3ccncc3)n2n1)Nc1nccs1	0.3	-5.4	?	-14%	10	.	39
Clc1cccc(Cl)c1Cn1cnc(=NCc2ccco2)c2[nH]cnc21	3.2	0.7	2.5%[38.3 µM]	7%	3	0.2%	-24
O=C1CC[C@H](OCc2ccccc2)CCN1[C@H](CSc1ccccc1)Cc1ccccc1	-1.2	-5.9	1.5%	-12%	18	-0.3%	27
CNC1(C(N)=O)CCNCC1	0.3	-0.2	1.6%	7%	1	-0.6%	2
Cc1ccc(S(=O)(=O)NC(CC(C)C)C(=O)NCc2ccco2)cc1 (centres undefined)	-0.2	-0.3	4.8%[38.3 µM]	25%	-1	-1.1%	-9
CN(C(=O)c1ccccc1-c1ncc[nH]1)C1CCCN(Cc2ccccc2F)C1 (centres undefined)	-0.5	.	0.0%	19%	5	-3.2%	-9
O=c1cc(-c2ccsc2)oc2ccc(-c3ccc4cc[nH]c4c3)cc12	1.0	.	1.4%	.	.	-2.3%	57
C=CCn1c(=O)c(C(=O)NCc2ccc3c(c2)OCO3)c(O)c2cc(OC)c(OC)cc21	-1.3	0.1	7.3%	24%	-1	5.2%	?

Seven entries already listed, sorted by SMILES length, largest number first:
SMILES	TRPML1 ag	Menin-MLL FL inh	PINK1 modulator	Sfp inh	TRPV1 PAM	ClpP mod	TRPML1 blocker
Cc1ccc(-n2c(SCC(=O)Nc3cccc(S(=O)(=O)NC4=NCCCCC4)c3)nc3ccccc3c2=O)cc1	-0.1	3.1	0.5%	9%	6	-0.1%	-5
CC(=O)c1ccc(N(CC(=O)NC2CCS(=O)(=O)C2)S(=O)(=O)c2ccc(C)cc2)cc1 (centres undefined)	0.4	.	2.1%	.	.	1.7%	11
O=C1CC[C@H](OCc2ccccc2)CCN1[C@H](CSc1ccccc1)Cc1ccccc1	-1.2	-5.9	1.5%	-12%	18	-0.3%	27
CN(C(=O)c1ccccc1-c1ncc[nH]1)C1CCCN(Cc2ccccc2F)C1 (centres undefined)	-0.5	.	0.0%	19%	5	-3.2%	-9
Cc1ccc(CN2CCNC(=O)C2CC(=O)N(C)C2CCCCC2)cc1 (centres undefined)	-0.3	.	0.3%	6%	-2	.	-14
Cc1ccc(NC(=O)c2ncn(-c3ccccc3)n2)c(Cl)c1	0.4	.	0.4%	.	.	-9.4%	-1
O=C(Nc1nc2c(F)cc(F)cc2s1)c1ccco1	-0.1	-0.3	0.0%	10%	-8	-13%	16

Additional entries follow.
SMILES	TRPML1 ag	Menin-MLL FL inh	PINK1 modulator	Sfp inh	TRPV1 PAM	ClpP mod	TRPML1 blocker
C/C(=N\NC(=O)c1cc2c(s1)CCC(C)C2)c1cccnc1 (centres undefined)	-0.8	3.9	5.9%	4%	-15	.	-6
COC(CNC(=O)c1ccc2nc(-c3ccccc3)c(-c3ccccc3)nc2c1)OC	3.0	-4.7	4.5%	-23%	20	.	35
Cc1ccc(S(=O)(=O)c2c(N)n(/N=C/c3ccco3)c3nc4ccccc4nc23)cc1	-1.0	?	0.7%	-28%	10	8.9µM*	13
Cc1cc(NC(=O)CCC(=O)N(Cc2ccco2)C(C(=O)NC2CCCC2)c2ccccc2)no1 (centres undefined)	0.7	1.3	-2.9%	8%	22	.	11
COc1ccc(CCC(=O)OCC(=O)Nc2ccc(C)c(S(=O)(=O)N(C)C)c2)cc1	2.4	0.8	1.6%	-5%	-1	1.2%	-6
CCc1nc2c(OCc3ccc(F)cc3)cccn2c1N(C)C(=O)c1ccc(C)cc1	-0.8	.	-1.4%	.	.	-3.2%	54
COc1ccccc1-n1nnnc1SCC(=O)Nc1cc(C)on1	1.8	0.2	2.5%	14%	3	-1.5%	-1
Cc1cc([N+](=O)[O-])ccc1NCc1ccccc1[N+](=O)[O-]	5.0	-2.1	1.5%	13%	8	.	46
CN(C(=O)COC(=O)CNC(=O)c1ccccc1F)C1CCCCC1	0.0	.	-4.4%	.	?	-0.1%	-11
O=C(CC(c1ccccc1)c1ccccc1)NCC1CCCO1 (centres undefined)	0.1	1.7	-1.2%	11%	2	-3.1%	13
NC(=O)c1ccccc1OCC(=O)N1CCc2ccccc2C1	-0.4	3.5	3.3%	13%	-20	.	2
CN(C)c1ncc2ncc(=O)n(C)c2n1	.	2.3	0.0%	-8%	.	.	.
COC(=O)c1cc2c(-c3ccccc3)c(C)c3ccccn3c-2c1C(=O)OC	4.1	?	?	-13%	0	11%	18
CC(=NNC(=S)N1CCN(C2CCCCCC2)CC1)c1ccccn1	0.4	.	-7.2%	.	.	-1.2%	16
Cn1cccc1Cc1nnc(SCC(=O)Nc2nc3ccccc3s2)n1CCc1ccccc1	0.7	14	13%[38.3 µM]	4%	-2	1.3%	-12
COCCCC1CCN(Cc2cn[nH]c2-c2cc(OC)c(OC)c(OC)c2)CC1	-0.5	1.6	0.4%	25%	1	0.8%	-11
COc1ccc(Oc2cc(Cl)nc(N)n2)cc1	-0.1	-5.5	1.2%	16%	8	-3.1%	11
COc1ccc(C2CC(C(F)(F)F)n3nc(C(=O)N(C)Cc4cn(C)nc4C)c(Cl)c3N2)cc1 (centres undefined)	-0.6	0.8	0.3%	13%	11	0.9%	13
O=C(OCc1nnc(-c2ccccc2)o1)c1ccccc1	1.5	-2.5	3.2%	9%	6	.	9
COc1ccc(C2CC(=O)Nc3sc(=N)c4c(N)c(C#N)c(N)nc4c32)cc1OC (centres undefined)	0.5	5.4	2.6%	-17%	3	-3.2%	-11
COC(CNC(=O)c1ccc(CS(=O)(=O)c2c(Cl)cccc2Cl)o1)OC	1.8	-2.3	0.0%	-1%	-6	-0.7%	23
Cc1cc(OCC(=O)N2CCc3ccccc3C2)c(C)cc1Br	6.1	1.5	3.3%	-14%	-9	.	39
Cn1cccc1C(=O)NC(=O)COC(=O)c1ccc(S(C)(=O)=O)cc1	0.8	.	-0.6%	.	.	-1.1%	-11
CC(=O)c1cc(NC(=O)c2cccc(C(F)(F)F)c2)c(=O)oc1/C=C/N(C)C	6.4	?	?	5%	.	2.0%	14
Cc1cc(Br)cn2c(CC(C)(C)C)c(C3CCCCC3)nc12	0.2	.	?	.	.	-4.9%	-9
Cc1ccccc1OCC(=O)NNC(=S)NC(=O)c1ccco1	8.4	2.1	11%[38.3 µM]	-4%	-15	-0.4%	7
Cc1ccc(NC(=O)COC(=O)/C=C/c2ccc(Br)o2)cc1S(=O)(=O)N(C)C	2.5	-1.9	0.6%	?	5	-5.0%	-11
COCCN(C(=O)COC(=O)Cc1ccc(Cl)cc1Cl)c1c(N)n(Cc2ccccc2)c(=O)[nH]c1=O	0.3	.	-0.2%	.	3	-0.3%	-16
C[C@H](NC(=O)[C@@H]1CCCN1C(=O)[C@@H]1CCCN1C(=O)OC(C)(C)C)c1ccccc1	-0.1	.	2.8%	.	.	-2.8%	.
N#Cc1nc(/C=C/c2ccc(F)cc2)oc1NC1CCCCC1	0.6	.	2.4%	.	.	4.7%	17
CN1CCN(c2ccc(CNC(=O)C3(C)Cc4c(-c5ccccc5)ccnc4O3)cc2)CC1 (centres undefined)	-0.7	.	1.2%	.	.	-0.1%	.
COC(=O)C1=C(C)NC(=O)NC1c1ccc([N+](=O)[O-])o1 (centres undefined)	-0.5	2.4	-1.8%	4%	1	0.4%	13
CCOc1ccc(-n2c(C)nnc2SCC(=O)N(CC)CC)cc1	-0.3	2.2	-23%[38.3 µM]	-5%	-10	0.2%	-2
CCOc1ccc(CNC(=O)Cc2ccc(NC(=O)N3CCCCc4ccccc43)cc2)cc1OC	-0.8	.	1.4%	.	.	1.7%	7
COc1ccc(-c2nnc(SCc3ccc(C(=O)O)cc3)n2N)cc1	-0.6	-2.4	-0.5%	17%	-1	.	-4
CCOc1ccc(OCCn2c(S(=O)(=O)O)nc3c(N)ncnc32)cc1	0.0	3.3	-0.6%	9%	-1	0.2%	-3
Cc1cnc(C(=O)NC2CCSc3ccccc32)cn1 (centres undefined)	-0.1	-2.2	0.2%	4%	-21	0.6%	-8
CC(OC(=O)Cc1n[nH]c(=O)c2ccccc12)C(=O)Nc1ccc(F)cc1Cl (centres undefined)	-0.6	.	1.4%	.	1	-11%	-4
